Autofluor counter: counter-screen for toxin protease inhibitors: compound fluorescence; compound autofluorescence counterscreen, microsphere flow cytometry; active compounds read high; fluorescence intensity (concentration not given with the values); 360,000 compounds, 3.1% hits;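 active = at least 3 SD above the mean of all compounds, about 16000 in these data; inconclusive = too few beads counted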;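 note: 100 nL of 1 mM stock went into each well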
BJeLR lethal: BJeLR cell viability loss | BJeLR (HRASV12) viability, CellTiter-Glo ATP luminescence, 48 h; reference of the scale not given here | inhibition, % (concentration not given with the values) | 300,000 compounds, 0.17% hits;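 active = replicate mean above 50%; inconclusive = above 50% but judged a plate artefact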;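 note: 50 nL library stock added to about 25 µL; numbers are from one replicate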
PrP 5UTR inh: inhibition of PrP 5' UTR reporter expression; 340,000 compounds, 0.35% hits; inhibition, % (concentration not given with the values); cell-based PrP 5' UTR mRNA reporter, plate reader;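 active = every replicate at 50% or more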;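 note: 0 = median of the neutral control wells; tested in H4 reporter cells; numbers are from one replicate; inactives centre near -14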
Mtb hypoxia rep: Mtb hypoxia fluorescent reporter inhibition; M. tuberculosis hypoxia-regulated fluorescent reporter, fluorescence; fluorescence inhibition, % (no concentration beside the values); 300,000 compounds, 0.1% hits; AID 1159583;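 active = 35 to 45% if threefold the growth effect, above 45% if 1.5-fold the growth effect; inactive = the rest, general growth blockers included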;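 note: wells of about 50 µL received 100 nL stock; 0% = vehicle wells and 100% = reference inhibitor wells; whole bacteria with a GFP reporter of the hypoxia response; strong numbers were not always called active; many hits fall short of the cut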
ugtP null kill: growth inhibition of S. aureus ugtP deletion strain; S. aureus RN4220 ugtP deletion, OD600 growth, 16 h; some inactives read as strong as hits; growth inhibition, % (concentration not given with the values); 330,000 compounds, 0.54% hits;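 active = z-score under -3 and OD600 up to 0.15 on both plates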;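 note: plate controls were untreated wells for no effect and antibiotic for full effect; wells of about 80 µL received 100 nL stock; the first replicate is given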
RN4220 kill: S. aureus RN4220 growth inhibition; OD600, 16 h; inhibition, % (concentration not given with the values); 330,000 compounds, 0.33% hits; AID 1259311;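 active = z-score of -3 or lower and OD600 up to 0.18 on both plates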;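 note: plate controls were untreated cells for no effect and reference antibiotic for full effect; stock transfer was 100 nL into about 80 µL; one replicate is shown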
Mtb hypoxia rep growth: second read-out of Mtb hypoxia rep, no call of its own (marks repeat the call); growth inhibition, %; measured here: M. tuberculosis growth (absorbance);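 0% = vehicle and 100% = reference antibiotic; read after six days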
An asterisk follows results filed as active; u = inconclusive; x = not tested or not shown.

SMILES	Autofluor counter	BJeLR lethal	PrP 5UTR inh	Mtb hypoxia rep	Mtb hypoxia rep growth	ugtP null kill	RN4220 kill
O=C(NCCc1ccccc1)c1c(F)c(F)c(F)c(F)c1F	2006	3	-7	10	10	2	4.7
COc1ccc(-c2noc(N3CCC(C(=O)Nc4ccc(F)cc4F)CC3)n2)cc1	4321	10	2	-9	-5	1	0.7
COc1ccc(OC)c(Nc2nc(NCCCN(C)C)nc(N)c2[N+](=O)[O-])c1	3678	5	-15	5	5	4	3.3
COc1cc(CCC(C)NCc2ccccc2)ccc1O (configuration not stated)	4072	4	-17	8	1	6	-1.1
O=C(c1oc(=O)c2ccccc2c1-c1ccccc1)N1CCC(O)CC1	4351	-5	68*	x	x	4	0.8
Cc1c(C(=O)N2CCCCC2)c(S(=O)(=O)N2CCN(c3ccc(F)cc3)CC2)c(C)n1C	4297	-9	-7	4	-6	-2	-1.0
COc1ccc(C(=O)/C=C/Nc2ccc(S(=O)(=O)Nc3cccc(C(C)=O)c3)cc2)cc1	2116	9	-19	x	x	x	x
COc1ccc(-c2noc(=O)n2Cc2ccc(C#N)cc2)cc1	4020	8	-14	7	3	2	1.5
Fc1ccc(OCc2nn[nH]n2)c(F)c1	4260	-11	4	3	2	8	3.5
COc1ccc(Cl)cc1NC(=O)N(C)Cc1c(C)nn(C)c1C	10526	2	-18	0	2	1	-2.5
CCOP(=O)(OCC)C1(O)C(=O)Nc2ccc(Br)cc21 (configuration not stated)	2094	14	-17	3	7	1	1.7
Cc1ccc(/C(N)=N/OC(=O)N2CCOCC2)cc1	6014	-3	-10	9	11	2	3.4
O=C(CNCC1CCCO1)Nc1ccc([N+](=O)[O-])cc1C(=O)Nc1ccccc1F (configuration not stated)	u	1	-6	12	8	-2	6.3
CCOC(=O)C1C2COc3ccc(Cl)cc3C2N2C(=O)CN(Cc3ccc(C)cc3)C(=O)[C@@]12C (some centres not stated)	x	x	x	-7	-3	-28	1.4
CC(=O)c1sc(NC(=O)c2cc3c(C)nn(-c4ccccc4)c3s2)nc1C	2806	6	-23	-3	0	-13	1.5
CCN(C[C@H]1N[C@@](Cc2ccccc2)(C(=O)OC)[C@H]2C(=O)N(C)C(=O)[C@@H]12)C(=O)Nc1ccc(C(F)(F)F)cc1	3846	x	-23	-13	-16	-2	-0.7
O=C(c1cc2ccccc2cc1O)N1CCCC(C(F)(F)F)C1 (configuration not stated)	4697	5	7	16	9	13	2.9
CC(C)=CC(=O)Nc1c(C)cc(C)cc1Cl	2494	-8	-18	18	2	3	1.7
O=C1CC(C(=O)N2CCN(S(=O)(=O)c3cccc(F)c3)CC2)CN1Cc1ccccc1Cl (configuration not stated)	6452	-18	-26	-4	6	-5	-0.1
CCN(CCNc1ccc([N+](=O)[O-])c2cccnc12)S(=O)(=O)c1ccccc1	10277	5	-41	6	1	8	4.6
CCCCN1C=C(C(=O)OCC)C(=O)CC1	4000	x	-17	-2	4	2	4.2
CN(C)C(=O)c1ccc(-n2nc(C(F)(F)F)c3c2CCCC3)cc1	3310	2	1	20	17	-4	-11
COc1ccccc1CN1CC(C(=O)NC2CCCCC2)CC1=O (configuration not stated)	5979	-1	-33	6	1	6	1.1
CN(C)C(=O)CCC(=O)N1CCCCC1C(=O)Nc1ccc(Oc2ccccc2F)cc1 (configuration not stated)	x	-3	-9	-3	-7	-3	2.2
Cc1nn(CCc2nn[nH]n2)c2nc(-c3ccc(C4CCCCC4)cc3)cc(C(F)(F)F)c12	3135	1	63*	9	6	32	21

Some of these compounds in order of length of the SMILES, falling.
SMILES	Autofluor counter	BJeLR lethal	PrP 5UTR inh	Mtb hypoxia rep	Mtb hypoxia rep growth	ugtP null kill	RN4220 kill
Cc1nn(CCc2nn[nH]n2)c2nc(-c3ccc(C4CCCCC4)cc3)cc(C(F)(F)F)c12	3135	1	63*	9	6	32	21
COc1ccccc1CN1CC(C(=O)NC2CCCCC2)CC1=O (configuration not stated)	5979	-1	-33	6	1	6	1.1
Fc1ccc(OCc2nn[nH]n2)c(F)c1	4260	-11	4	3	2	8	3.5

Next compounds follow:
SMILES	Autofluor counter	BJeLR lethal	PrP 5UTR inh	Mtb hypoxia rep	Mtb hypoxia rep growth	ugtP null kill	RN4220 kill
N#Cc1nc(COc2ccccc2)oc1N1CCC(Cc2ccccc2)CC1	3396	-1	-7	x	x	14	-8.6
OCCCNc1ncnc2oc(-c3ccccc3)c(-c3ccccc3)c12	4014	0	-9	0	5	-5	7.4
COc1ccc(C(=O)Nc2ccc(S(=O)(=O)N(C)c3ccccc3)cc2)cc1	5501	-8	-19	-1	6	-12	0.7
C#CCSc1nnc(C)c(C)n1	3940	-9	-17	19	11	0	9.1
Cc1ccc2c(c1)COc1c3ccc(C(=O)NC(C)CO)cc3nn1-2 (configuration not stated)	x	x	x	1	2	-1	1.1
Cc1onc(-c2ccccc2Cl)c1C(=O)OCC(=O)Nc1cccc(S(=O)(=O)N2CCOCC2)c1	2731	7	-31	0	-1	4	2.6
Cc1ccc(S(=O)(=O)N2CCCC(C(=O)NCc3cccnc3)C2)cc1Cl (configuration not stated)	3676	6	-13	x	x	8	3.3
Cc1cccc(N2CCN(C(=O)C3CCN(c4nnc(-n5cccc5)s4)CC3)CC2C)c1 (configuration not stated)	4284	6	-7	x	x	12	-3.5
Cc1[nH]c(=O)[nH]c(=O)c1S(=O)(=O)N1c2ccc(F)cc2CCC1C (configuration not stated)	9338	-7	-32	1	5	4	7.1
CCC1CN(C(=O)Nc2cccc(C)c2)c2cc(C)ccc2O1 (configuration not stated)	4315	0	-30	18	7	15	5.4
NS(=O)(=O)c1ccc(CCNC(=O)CCNC(=O)c2ccco2)cc1	3619	2	-14	10	6	7	4.7
Brc1ccccc1CN1CCC(Cc2ccccc2)CC1	x	10	-3	7	-1	17	5.1
Cc1ccc2c(SCC(=O)NCc3ccco3)nc(-c3ccc(F)cc3)nc2c1	10544	0	x	-1	8	-15	-4.7
Cc1ccc(C2=NN=C(NC(=O)C(F)(F)F)SC2)cc1	5528	x	-52	-1	0	3	-2.6
O=S1(=O)CC=C(CSC(=S)NC2CCS(=O)(=O)C2)C1 (configuration not stated)	4898	x	-3	17	14	6	6.0
COc1cc(C2C(C#N)=C(N)N(N(C)C)C3=C2C(=O)CC(C)(C)C3)cc(OC)c1OC (configuration not stated)	4306	4	-2	10	-6	4	1.4
CCOc1cnc(-c2c(-c3c(F)cccc3Cl)noc2C)o1	4263	-1	-8	10	7	10	9.6
CCOC(=O)COc1cc(Br)c(C2NC(=O)NC(C)=C2C(C)=O)cc1OCC (configuration not stated)	11231	-5	-5	6	13	2	1.8
Cc1ccc(C)c(NC(=O)c2cc3c([nH]c4ccccc43)c(C)n2)c1	2512	-4	-18	4	5	-2	5.7
O=C(O)c1cccc(S(=O)(=O)Nc2ccc3c(c2)OCO3)c1	21051*	-2	-6	5	12	4	-0.6
CCCC(CCC(=O)Nc1nccs1)C(=O)O (configuration not stated)	4442	15	-4	7	8	5	5.9
CCC(=O)Nc1nc2ccccc2n1Cc1ccccc1Cl	3179	2	-31	-13	4	-11	3.2
CC(=O)CC1c2cc(C(F)(F)F)ccc2S(=O)(=O)N1C1CCCCC1 (configuration not stated)	x	x	x	0	-5	1	5.1
COc1ccc(/C=N/Nc2nc(-c3cccnc3)nc3ccccc23)cc1OC	6448	-2	-24	x	x	x	x
O=C(Cc1ccccc1[N+](=O)[O-])NC1CC1	4508	1	-18	-4	3	6	2.7

Only PrP 5UTR inh, for some of the entries so far:
SMILES,PrP 5UTR inh
Cc1onc(-c2ccccc2Cl)c1C(=O)OCC(=O)Nc1cccc(S(=O)(=O)N2CCOCC2)c1,-31
Cc1ccc(S(=O)(=O)N2CCCC(C(=O)NCc3cccnc3)C2)cc1Cl (configuration not stated),-13
Cc1cccc(N2CCN(C(=O)C3CCN(c4nnc(-n5cccc5)s4)CC3)CC2C)c1 (configuration not stated),-7
Cc1[nH]c(=O)[nH]c(=O)c1S(=O)(=O)N1c2ccc(F)cc2CCC1C (configuration not stated),-32
CCC1CN(C(=O)Nc2cccc(C)c2)c2cc(C)ccc2O1 (configuration not stated),-30

Compound profiles (already shown):
CCOc1cnc(-c2c(-c3c(F)cccc3Cl)noc2C)o1 as listed: Autofluor counter = 4263; BJeLR lethal = -1; PrP 5UTR inh = -8; Mtb hypoxia rep = 10; Mtb hypoxia rep growth = 7; ugtP null kill = 10; RN4220 kill = 9.6
COc1ccc(C(=O)Nc2ccc(S(=O)(=O)N(C)c3ccccc3)cc2)cc1 as listed: Autofluor counter = 5501; BJeLR lethal = -8; PrP 5UTR inh = -19; Mtb hypoxia rep = -1; Mtb hypoxia rep growth = 6; ugtP null kill = -12; RN4220 kill = 0.7
CCC(=O)Nc1nc2ccccc2n1Cc1ccccc1Cl as listed: Autofluor counter = 3179; BJeLR lethal = 2; PrP 5UTR inh = -31; Mtb hypoxia rep = -13; Mtb hypoxia rep growth = 4; ugtP null kill = -11; RN4220 kill = 3.2

Later entries
SMILES	Autofluor counter	BJeLR lethal	PrP 5UTR inh	Mtb hypoxia rep	Mtb hypoxia rep growth	ugtP null kill	RN4220 kill
COc1cc(/C=C(\NC(C)=O)C(=O)NC(C)(C)C)ccc1OC(C)=O	1965	-8	-22	6	0	4	3.1
Cc1cccc(NS(=O)(=O)c2ccc(C(=O)NCC(c3ccco3)N3CCCCC3)cc2)c1C (configuration not stated)	u	3	-3	-5	-1	7	-1.4
COc1ccc(CN(C)C(=O)c2cccc(S(=O)(=O)N3CCN(c4ccccc4)CC3)c2)c(OC)c1OC	5239	0	-1	0	1	0	2.2
COc1ccc(N(C)C(=O)Cc2c(C(=O)O)[nH]c3ccccc23)c(OC)c1	3531	7	-8	15	8	3	9.6
COc1ccc2c(c1OC)C(=O)N1C(C(=O)O)Cc3c([nH]c4ccccc34)C21 (configuration not stated)	9055	8	-26	3	3	3	0.5
Cn1nnnc1SCc1ccc(C(=O)Nc2nccs2)cc1	24214*	7	-56	-5	9	1	3.8
Cc1cc(=O)oc2cc(NC(=O)C(CCCN=C(N)N)NC(=O)OCc3ccccc3)ccc12 (configuration not stated)	3066	-1	-9	-11	15	-1	2.8

By substructure, those above with an aryl thioether with sulfur outside any ring.
SMILES	Autofluor counter	BJeLR lethal	PrP 5UTR inh	Mtb hypoxia rep	Mtb hypoxia rep growth	ugtP null kill	RN4220 kill
C#CCSc1nnc(C)c(C)n1	3940	-9	-17	19	11	0	9.1
Cc1ccc2c(SCC(=O)NCc3ccco3)nc(-c3ccc(F)cc3)nc2c1	10544	0	x	-1	8	-15	-4.7
Cn1nnnc1SCc1ccc(C(=O)Nc2nccs2)cc1	24214*	7	-56	-5	9	1	3.8

Screens as filed in PubChem.
